# Compound activity (PubChem BioAssay)
# TRPV1 potentiator = potentiators of human vanilloid receptor 1 (TRPV1); AID 540277; TRPV1-expressing cells, Fluo-8 calcium influx, capsaicin EC20 potentiation; host cell line not named in the record; control for the full effect not named in the record; 0.02% of 320,000 active; Q8NER1; potentiation, % at 8.33 µM; active means potentiation above 80%; inconclusive means 30% to 80%; inactive means below 30%; note: 0% is about no effect
# Target sequence (Q8NER1 whole entry, looked up): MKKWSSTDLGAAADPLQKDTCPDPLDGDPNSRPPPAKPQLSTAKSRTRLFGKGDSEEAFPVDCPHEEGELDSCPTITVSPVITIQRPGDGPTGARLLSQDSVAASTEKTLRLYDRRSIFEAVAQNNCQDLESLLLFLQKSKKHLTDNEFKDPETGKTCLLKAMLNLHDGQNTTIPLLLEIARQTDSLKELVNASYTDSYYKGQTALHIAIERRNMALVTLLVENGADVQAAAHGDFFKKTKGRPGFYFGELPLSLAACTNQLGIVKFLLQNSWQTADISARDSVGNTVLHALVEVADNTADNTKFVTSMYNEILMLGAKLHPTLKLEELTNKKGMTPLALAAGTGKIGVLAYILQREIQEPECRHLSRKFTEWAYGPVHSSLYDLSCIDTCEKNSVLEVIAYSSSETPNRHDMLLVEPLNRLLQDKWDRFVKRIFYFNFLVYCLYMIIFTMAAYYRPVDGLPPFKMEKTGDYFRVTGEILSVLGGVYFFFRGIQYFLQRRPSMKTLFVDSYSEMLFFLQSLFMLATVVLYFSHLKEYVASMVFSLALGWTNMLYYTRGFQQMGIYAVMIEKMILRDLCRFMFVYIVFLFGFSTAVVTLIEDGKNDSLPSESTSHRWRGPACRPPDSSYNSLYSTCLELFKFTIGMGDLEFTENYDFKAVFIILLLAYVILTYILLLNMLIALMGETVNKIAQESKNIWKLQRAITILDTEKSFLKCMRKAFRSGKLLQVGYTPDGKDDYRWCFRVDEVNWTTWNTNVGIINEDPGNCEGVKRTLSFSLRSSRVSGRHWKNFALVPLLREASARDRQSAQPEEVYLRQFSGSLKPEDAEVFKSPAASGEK
#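 Fluo-8 calcium influx in TRPV1-expressing cells, kinetic read (ex 480/em 520 nm). Compound added and read 3 min for agonist activity, followed by capsaicin at EC20 final and 2 min further read for enhancement.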
# ClpP mod = qHTS Assay for Activators of ClpP; purified B. subtilis ClpP, FRET peptide cleavage, 20 min; Potency, µM (doses to about 57.5 µM), for inactives: top-dose activity change, negative = active; 1.9% of 340,000 active; AID 651965, 2013; active = well fitted falling curve with a large enough effect; inconclusive = small, poorly fitted or top-dose-only effect; inactive = no such curve, though single readings can be large or run the other way; note: potency is the fitted concentration of half-maximal effect; the source files actives as falling curves though it sought activators and does not explain the sign; nearly all actives have a fitted effect of over 65% in size; many hits overshoot -100%
# Target sequence (P80244 whole entry, looked up): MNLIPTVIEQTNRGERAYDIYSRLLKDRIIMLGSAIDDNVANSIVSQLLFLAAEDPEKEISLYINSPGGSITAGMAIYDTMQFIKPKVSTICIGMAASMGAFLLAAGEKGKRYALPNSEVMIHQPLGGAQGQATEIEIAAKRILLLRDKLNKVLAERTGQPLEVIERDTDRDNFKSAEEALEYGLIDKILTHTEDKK
#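 Buffer: 100 mM Tris/HCl pH8, 100 mM KCl, 0.05% low protease BSA, 2.5% glycerol, 0.01% Tween-20. ClpP 10 microg/mL final; 20 min RT; delta FRET normalized to ADEP and DMSO controls.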
# PINK1 modulator = PINK1 expression modulation; Potency, µM (highest dose often 76.6 µM), for the others: at the top dose activation (PINK1 increase), actives largely listed as activators; 0.2% of 410,000 active; AID 624263; PINK1 immunofluorescence, high-content cytometry, 24 h; active = well fitted activation curve with a large enough effect; inconclusive = small, poorly fitted or top-dose-only effect; inactive = flat fitted curve, though single readings scatter; cell line not stated here;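 note: potency is the fitted concentration of half-maximal effect; % of control where 0% means no effect; nearly all actives have a fitted effect of over 65% in size; a mitochondrial uncoupler was the plate control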
#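 A stable cell line was treated with compounds at 5 concentrations for 24 hours, with CCCP as control. PINK1 levels and mitochondrial localization were measured by immunofluorescence with mitochondrial, cell and nuclear markers after fixation, read by laser-scanning cytometry.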
# Sfp PPTase inh = inhibitors of Bacillus subtilis Sfp phosphopantetheinyl transferase; Q9F4F7; Biochemical Sfp PPTase activity, qHTS; Potency, µM, inactives show max response, negative = inhibition, most hits filed as inhibitors; 3.5% of 310,000 active; active = well fitted inhibition curve with a large enough effect; inconclusive = small, poorly fitted or top-dose-only effect, or another doubt; inactive = no such curve, though single readings can be large or run the other way;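 note: the enzyme is Sfp with the accession as filed and its product quenches rhodamine fluorescence; potency is the fitted concentration of half-maximal effect; 0% = enzyme reaction without inhibitor and -100% = no enzyme wells; top concentration of the series not given in the record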
#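 Compounds were incubated with enzyme (final 15 nM) for 15 min at room temperature before substrate addition started the reaction. Fluorescence at 525 nm excitation, 598 nm emission was recorded immediately and after 30 minutes.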
# TRPML1 ag = agonists of human TRPML1 channel; Q9GZU1; TRPML1-expressing cells, Ca2+ dye fluorescence, FDSS; host cell line not named in the record; reference of the full effect not given here; activation, % (concentration not given with the values); 0.12% of 410,000 active; AID 624414; in the data active = activation above about 50%; inconclusive = about 30% to 50%; inactive = below about 30%; note: 0% is about no effect; the text of the record puts the active cut at 80%
#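 Tetracycline-induced TRPML1-DL cells are seeded and incubated overnight before loading with a no-wash Ca2+ dye and quencher. Agonist activity is taken from the 110 s fluorescence read following compound pin-transfer on an FDSS, before EC80 54-4 challenge.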
# Menin-MLL FL inh = displaces fluorescein MLL peptide from human menin | FP activity change, % at 61.4 µM | 290,000 tested, under 10 active | AID 1766 | Fluorescence polarization, fluorescein-MLL peptide displacement from menin; inconclusive = falling polarisation curve, or a change in total fluorescence; inactive = total fluorescence flat and polarisation flat or rising; no compound was filed as active; the % refers to the polarisation; negative = inhibition;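 note: % of control where 0% means no effect; inhibitors lower the polarisation; unlabelled MLL peptide was the positive control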
# TRPML1 inh = blocks the human TRPML1 channel; Q9GZU1; TRPML1-inducible cells, Ca2+ dye fluorescence, FDSS; stronger effect = lower value; inhibition of EC80 agonist-evoked calcium signal; activity change, negative = inhibition, % (concentration not given with the values); 0.02% of 390,000 active; AID 624415; in the data active means activity change below about -50%; inconclusive means about -30% to -50%; inactive means above about -30%;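 note: stimulus is agonist 54-4 at its EC80 concentration; % is set by controls: 0 for no effect and ±100 for the full control effect; compound concentration not given in the record; the text of the record puts the active cut at -80%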
#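 Calcium fluorescence in TRPML1-DL cells induced overnight with Tet: a 110 s read after compound pin addition, then a 110 s antagonist read after challenge with 54-4 at 4 uM final (EC80).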
# * marks the source's active call; other numbers are inactive results; ? = inconclusive; / = not tested or not shown; & = joins results of further samples; [ ] = another dose, or the depositor's remark.
SMILES,TRPV1 potentiator,ClpP mod,PINK1 modulator,Sfp PPTase inh,TRPML1 ag,Menin-MLL FL inh,TRPML1 inh
Cc1ccc(C(=O)C2CCN(CC(=O)Nc3ccccc3C)CC2)cc1,-4,/,0.5%,3%,0.0,/,-5
N#Cc1ccc(-c2ccc(OCC(=O)NCC(=O)Nc3ccc(F)c(F)c3F)cc2)cc1,-3,?,0.9%,-23%,-0.7,1.5,-4
Cc1nc(SCC(=O)O)c(C#N)c(C)c1CC(=O)c1ccccc1,23,/,-2.0%,7%,-0.5,1.9,-15
CCN1C(=O)CC(c2ccco2)Sc2ccccc21 (stereo not drawn),-13,-1.3%,1.4%[38.3 µM],40µM*,0.1,6.4,-7
C=CCN=C(NC#N)SCc1ccccc1,-16,-1.0%,1.8%,23%,-0.4,2.5,-3
COc1ccc(CNC(=O)[C@H](Cc2ccccc2)NC(=O)C2CCN(C(=O)[C@H](C)N)CC2)cc1,10,1.6%,0.3%,17%,/,5.1,/
O=C(Cc1cccc(NC(=O)C2CCCN(C(=O)C3CC3)C2)c1)Nc1cccc(C(=O)N2CCCC2)c1 (stereo not drawn),-28,-1.6%,0.0%,/,1.6,/,-20
COc1cc(OC)c(C(=O)N2CCCC2)cc1OC,1,/,-0.3%,11%,0.1,1.3,-3
CCn1c(SCC(=O)N2CCN(c3ccccc3)CC2)nnc1-c1c[nH]c2ccccc12,13,-0.7%,3.0%,14%,-0.7,-0.6,-4
CC(=O)c1ccc(N2CCC(C)CC2)c(F)c1,-9,0.3%,1.4%,2%,3.9,2.3,-13
O=C(OC1CCOC1=O)C1CCN(S(=O)(=O)c2c(Cl)cccc2Cl)CC1 (stereo not drawn),7,-5.5%,-1.6%,/,0.3,/,5
N#Cc1ccc(C23OCCN2CCn2nc4ccccc4c23)cc1 (stereo not drawn),/,-13%,0.2%,/,-0.2,/,11
Cn1[nH]c(C(F)(F)F)cc1=O,8,-1.6%,0.4%,9%,-0.8,0.8,35
CCOC(=O)C1CCN(C(=O)COC(=O)/C=C/c2ccc([N+](=O)[O-])cc2)CC1,/,2.4%,1.6%,/,-0.6,/,-3
O=C(CC1NCCNC1=O)Nc1ccc2c(c1)OCCO2 (stereo not drawn),-1,-1.2%,3.8%[38.3 µM],19%,-0.1,3.8,36
Cc1nc2ccc(C(=O)c3ccccc3)cc2[nH]1,7,1.2%,1.5%,9%,-0.6,-0.1,-4
COc1ccc(Nc2oc(-c3ccccc3F)nc2C#N)cc1,-22,0.0%,6.9%,12%,-0.7,2.3,14
COc1ccc(N2CCN(C3CC(=O)N(Cc4ccc(N5CCCC5=O)cc4)C3=O)CC2)cc1 (stereo not drawn),14,-0.9%,-0.9%,-10%,-1.1,4.0,4
Cc1ccc(C(C(=O)NC2CCCC2)N(C(=O)CNC(=O)c2ccco2)c2ccccc2)o1 (stereo not drawn),17,/,-0.3%,19%,-0.3,-0.8,-7
CCN(CC)S(=O)(=O)c1ccc(C(=O)N2CCN(C(=O)c3ccco3)CC2)cc1,2,2.3%,-1.1%,/,0.1,/,6
COCc1nnc(NC(=O)CS(=O)(=O)Cc2ccccc2)s1,2,1.6%,0.5%,16%,-0.1,-3.7,-10
Cc1[nH]c2ccccc2c1C(=O)/C=C\c1ccccc1Cl,-2,0.4%,?,2%,0.3,7.8,-7
O/N=C/c1ccccc1Oc1ccccc1,-10,-1.0%,10%,3%,0.8,8.2,11
CCCCN(C)C(=O)Cn1cnc2sc(C)c(S(=O)(=O)N3CCN(c4ccccc4OC)CC3)c2c1=O,0,0.6%,5.6%&1.3%,14%,-0.3&-0.4,4.8,-14&2
CCN(C(=O)CSc1nc2ncccc2[nH]1)c1ccc(C(C)C)cc1,/,-1.1%,-1.7%,/,-0.3,/,0
CC(C)Oc1ccc(C2C(C(=O)c3ccco3)=C(O)C(=O)N2Cc2cccnc2)cc1 (stereo not drawn),25,-1.0%,0.7%,-6%,-0.2,3.5,11
Cc1ccc(S(=O)(=O)N2CCN(C(=O)c3ccc(Br)o3)CC2)c(C)c1,3,/,0.3%,11%,-0.5,-0.5,16
COc1ccc(NC(=O)Nc2ccccn2)cc1OC,9,-3.3%,-0.4%,1%,-0.1,3.0,-7
Cc1ccc(OCC(=O)N2CC3(C)CC2CC(C)(C)C3)cc1 (stereo not drawn),-15,-1.4%,-1.0%,5%,0.2,-0.9,4
COc1ccc(OCC(O)CNS(=O)(=O)c2ccc(NC(C)=O)cc2)cc1 (stereo not drawn),5,-0.7%,-0.5%,8%,-0.4,/,-10
CSc1ccccc1NC(=O)c1ccccc1N(C)S(C)(=O)=O,6,-0.1%,6.3%[38.3 µM],-2%,-0.8,-4.9,-8
Cn1c(SCC(=O)N2CCc3ccccc32)nc2cccnc21,-9,-0.1%,-1.8%,11%,-1.0,0.4,0
CCCOc1cc(C)c(Cl)cc1S(=O)(=O)N(CC)CC,-9,0.3%,-0.5%,9%,-0.5,5.7,10
CN(Cc1ccccc1)Cc1cc(=O)oc2ccc3ccccc3c12,/,-21%,2.4%,/,1.8,/,12
CNC(=O)c1ccc(-c2ccccc2)s1,-8,3.5µM*,-0.5%,19%,1.3,2.1,-14
COC(=O)CN1C(=O)Nc2ccc(C)cc2C1c1ccccc1 (stereo not drawn),17,1.2%,2.7%,-7%,0.0,-4.9,21

# Four compounds drawn at random from those above, as already listed:
SMILES,TRPV1 potentiator,ClpP mod,PINK1 modulator,Sfp PPTase inh,TRPML1 ag,Menin-MLL FL inh,TRPML1 inh
COc1ccc(NC(=O)Nc2ccccn2)cc1OC,9,-3.3%,-0.4%,1%,-0.1,3.0,-7
Cc1ccc(OCC(=O)N2CC3(C)CC2CC(C)(C)C3)cc1 (stereo not drawn),-15,-1.4%,-1.0%,5%,0.2,-0.9,4
Cn1c(SCC(=O)N2CCc3ccccc32)nc2cccnc21,-9,-0.1%,-1.8%,11%,-1.0,0.4,0
Cc1ccc(S(=O)(=O)N2CCN(C(=O)c3ccc(Br)o3)CC2)c(C)c1,3,/,0.3%,11%,-0.5,-0.5,16

# (listing goes on)
SMILES,TRPV1 potentiator,ClpP mod,PINK1 modulator,Sfp PPTase inh,TRPML1 ag,Menin-MLL FL inh,TRPML1 inh
CCOC(=O)c1ccc2ncc3c(-c4ccccc4)nn(-c4ccc(F)c(Cl)c4)c3c2c1,/,24%,-0.2%,/,0.2,/,-2
CCOC(=O)c1sc2c(c1C)c(=O)n(CCO)c(=O)n2Cc1ccccc1,-2,-4.6%,1.3%,-10%,3.0,0.1,-4
O=C(CN1c2ccccc2Sc2ccccc21)NNC(=O)Nc1ccc(Cl)c(Cl)c1,8,/,11%,-9%,0.7,-0.4,12
O=C1NC[C@H](Cc2ccc(O)cc2)N(C[C@H]2CCCN2C[C@H](Cc2ccccc2)N2C[C@H](Cc3ccccc3)N(CCc3ccccc3)C(=O)C2=O)C1=O,/,-3.2%,2.7%,/,-0.5,/,7
CCOc1ccc(C(=O)Nc2cccc3nsnc23)cc1[N+](=O)[O-],1,/,3.5%,?,0.0,0.9,-20
O=C(CCCC(=O)OCC(Cl)=C(Cl)Cl)Nc1ccccc1F,6,-0.1%,2.6%,-5%,-0.7,4.9,5
COCCNC(=O)C1=NOC(Cn2cc(C#N)c(=O)n(C)c2=O)C1 (stereo not drawn),?,/,-0.1%,0%,0.3,-0.4,3
NC(=O)c1ccc(NC(=O)COC(=O)CCN2C(=O)c3ccccc3C2=O)cc1,/,1.3%,1.3%,/,5.3,/,-6
Cc1nc(-c2ccc([N+](=O)[O-])cc2)nc2[nH]ccc(=O)c12,2,0.1%,-0.1%,-2%,/,-2.2,/
CCOC(=O)CSc1nc2nc(Cl)c(Cl)nc2[nH]1,/,3.9%,0.7%,/,-0.4,/,1
CN(C)S(=O)(=O)c1ccc(C(=O)Nc2cccc(S(=O)(=O)NC3=NCCC3)c2)cc1,/,0.5%,0.8%,4%,0.4,0.6,-7
O=C(Nc1ncccn1)c1ccc([N+](=O)[O-])cc1[N+](=O)[O-],/,-0.6%,-1.4%,/,2.1,/,-18
Cc1c(C(=O)Nc2ccc(-c3nnc4n3CCCCC4)cc2)oc2ccc(Br)cc12,10,?,1.0%,-12%,-0.3,9.4,5
CCN1CCOC(=O)C1CC(=O)Nc1ccccc1C(F)(F)F (stereo not drawn),/,2.2%,-0.3%,/,0.6,/,-29
COc1ccc(N2CCN(C(=O)COc3ccc(S(=O)(=O)N4CCOCC4)cc3C)CC2)cc1,-1,/,0.9%,6%,-0.4,3.8,?
COc1ccc(-c2c(C#Cc3ccsc3)c3cc(-c4ccc5[nH]ccc5c4)ccc3n2C)cc1,0,5.0%,1.7%,/,-0.4,/,-1
O=C(COC(=O)c1cc(Br)ccc1O)Nc1cc(S(=O)(=O)N2CCCC2)ccc1Cl,-16,-3.2%,-1.1%,56µM*,0.5,11,-5
COCCNC(=O)C1(C)CCCN(C(=O)c2cc(C)on2)C1 (stereo not drawn),/,-2.5%,3.5%,/,-0.3,/,/
CCN(CC)S(=O)(=O)c1ccc2oc(Nc3ccccc3)nc2c1,10,/,-0.6%,-5%,0.4,0.2,?
O=C(N/N=C/c1cccs1)c1cccc(NC(=O)c2ccc(Cl)cc2)c1,-32,/,/,-3%,/,3.2,/
Cc1ccc(C(=O)NCCCNc2ccc(C(F)(F)F)cc2[N+](=O)[O-])cc1,1,1.1%,12%,-5%,0.9,26,13
CCOC(=O)N1CCN(C(=O)CCS(=O)(=O)c2ccc(Br)s2)CC1,0,-0.7%,2.6%[38.3 µM],13%,1.7,1.9,-11
COc1ccc(/C=N/N=C2/NC(=O)C(CC(=O)O)S2)cc1OS(=O)(=O)c1ccccc1 (stereo not drawn),-4,/,3.8%,5%,0.2,-5.1,5
CC1=C(C(=O)Nc2cc(C)cc(C)c2)C2(CCCCC2)OC1=O,/,-2.1%,0.1%,/,1.6,/,14
CCN(C(=O)COC(=O)c1cccc(C)c1[N+](=O)[O-])c1c(N)n(Cc2ccccc2)c(=O)[nH]c1=O,-7,0.5%,0.5%,/,0.1,/,6
Cc1ccc2c(=O)cc(C(=O)NCCc3ccc(S(N)(=O)=O)cc3)oc2c1C,-17,/,16%,15%,-0.3,2.4,-2
CCCc1nc(SCC(=O)O)c2sc(=S)n(-c3ccccc3)c2n1,15,0.3%,-2.1%,13%,1.4,10,-6
CC1Cc2ccccc2N1S(=O)(=O)c1c(N)n(C)c(=O)n(C)c1=O (stereo not drawn),-14,/,2.4%,14%,-0.6,1.6,11
